Bioassay records from PubChem.
Bead autofluor: counter-screen for toxin protease inhibitors: compound fluorescence; AID 624483; actives 3.1% (n = 360,000); compound autofluorescence counterscreen, microsphere flow cytometry; active compounds read high; fluorescence intensity (no concentration beside the values);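 active = at least 3 SD above the mean of all compounds, about 16000 in these data; inconclusive = too few beads counted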;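 also: 100 nL of 1 mM stock went into each well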
ugtP null kill: compounds lethal to S. aureus RN4220 ugtP deletion mutant | AID 1259309 | actives 0.54% (n = 330,000) | growth inhibition, % (no concentration beside the values) | OD600 growth, 16 h; some inactives read as strong as hits;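 active = z-score under -3 and OD600 up to 0.15 on both plates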;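 also: plate controls were untreated wells for no effect and antibiotic for full effect; wells of about 80 µL received 100 nL stock; the first replicate is given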
RN4220 kill: S. aureus RN4220 growth inhibition. actives 0.33% (n = 330,000). inhibition, % (no concentration beside the values). OD600, 16 h;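 active = z-score of -3 or lower and OD600 up to 0.18 on both plates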;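 also: plate controls were untreated cells for no effect and reference antibiotic for full effect; stock transfer was 100 nL into about 80 µL; one replicate is shown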
Mtb hypoxia inh: reduces hypoxia-regulated biosensor signal in M. tuberculosis; fluorescence inhibition, % (no concentration beside the values); AID 1159583; M. tuberculosis hypoxia-regulated fluorescent reporter, fluorescence; actives 0.1% (n = 300,000);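 active = 35 to 45% if threefold the growth effect, above 45% if 1.5-fold the growth effect; inactive = the rest, general growth blockers included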;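 also: wells of about 50 µL received 100 nL stock; 0% = vehicle wells and 100% = reference inhibitor wells; whole bacteria with a GFP reporter of the hypoxia response; strong numbers were not always called active; many hits fall short of the cut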
BJeLR lethal: BJeLR cell viability loss; BJeLR (HRASV12) viability, CellTiter-Glo ATP luminescence, 48 h; reference of the scale not given here; inhibition, % (no concentration beside the values); actives 0.17% (n = 300,000); AID 1554;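 active = replicate mean above 50%; inconclusive = above 50% but judged a plate artefact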;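 also: 50 nL library stock added to about 25 µL; numbers are from one replicate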
PrP 5UTR inh: inhibition of PrP 5' UTR reporter expression | cell-based PrP 5' UTR mRNA reporter, plate reader | inhibition, % (test concentration not listed) | actives 0.35% (n = 340,000) | AID 488862;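 active = every replicate at 50% or more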;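 also: 0 = median of the neutral control wells; tested in H4 reporter cells; numbers are from one replicate; inactives centre near -14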
Mtb hypoxia inh growth: recorded beside Mtb hypoxia inh, whose call it bears; growth inhibition, %; measured here: M. tuberculosis growth (absorbance);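 0% = vehicle and 100% = reference antibiotic; read after six days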
The depositor's hits bear a star; ? = inconclusive; nt = no result given. Rows were taken by chance, and some 4% of all compounds hit somewhere here.

SMILES	Bead autofluor	ugtP null kill	RN4220 kill	Mtb hypoxia inh	Mtb hypoxia inh growth	BJeLR lethal	PrP 5UTR inh
Cc1cc(C)n(CCNS(=O)(=O)c2ccccc2)n1	5735	-1	6.7	0	-4	-15	-8
OC[C@@H](O)[C@H](O)C(C=NNc1ccccc1)=NNc1ccccc1	nt	-7	1.2	22	14	nt	nt
C#CCCOC(=O)N1C2=NC(C(=O)OC)=C(C(=O)OC)C3Nc4ccccc4[C@]23CC1C(=O)OC (some centres not stated)	nt	3	7.8	2	9	nt	nt
O=C(Oc1c(-c2ccccc2Cl)oc2ccccc2c1=O)c1ccc(Cl)cc1	10426	nt	nt	nt	nt	9	-19
Cc1cc(=O)n2c(C(=O)Nc3ccc(C(=O)OC(C)C)cc3)c(C(=O)Nc3ccccc3)sc2n1	4359	12	2.7	-8	-10	-3	-1
CCN(CC)c1ccc(NC(=O)Cn2c(C(C)NC(=O)c3ccccc3)nc3ccccc32)cc1 (configuration not stated)	2542	2	1.8	nt	nt	3	-9
CC1CC(C)CN(CCCNC(=O)CN2C(=O)COc3ccc(S(=O)(=O)N4CCOCC4)cc32)C1 (configuration not stated)	5492	11	2.9	8	8	-3	-35
COc1ccc(N(C)S(=O)(=O)c2cccc(C(=O)OCC(=O)N(C)c3ccccc3)c2)cc1	3766	5	13	2	2	nt	-10
CCOC(=O)C1=C(C)NC(C)=C(C(=O)OCC)C1C(=O)OCC(=O)N1CCc2ccccc2C1	4257	3	3.9	4	0	-7	-2
O=C(CC1c2ccccc2Oc2ccccc21)NCc1ccco1	6946	17	-1.0	10	11	-3	-9
O=S(=O)(c1cccc(F)c1)N1CCC(CO)(Cc2cccc(F)c2)CC1	4319	1	8.2	7	2	-1	-27
CCCN=C1N(CC)C[C@@H]2[C@@H]3C(=O)N(C)C(=O)[C@@H]3[C@](C)(C(=O)OC)N12	3888	2	-0.3	-2	6	nt	-40
CCN(CC)c1ccc(CC2C(=O)N(C)C(=O)N(C)C2=O)cc1	2689	9	-4.3	-6	-2	-5	-19
CC1CN(Cc2ccccc2Cl)CC(C)O1 (configuration not stated)	11131	-3	0.4	-1	3	5	-18
CC(=O)c1ccc(N2CCN(c3ncccn3)CC2)c([N+](=O)[O-])c1	3471	17	4.7	6	-1	-7	-14
Cn1c(CSc2nc3ccccc3s2)nnc1SCC(=O)NCCCN1CCOCC1	4482	-1	6.8	9	6	-1	-5
C#CCNC(=O)C1=C[C@H](C2CCCCC2)[C@@H](CCCO)[C@H](OCC)O1	2931	nt	nt	nt	nt	9	-18
CCOC(=O)/C(C#N)=C1\CCCN1CC(N)=S	2692	2	4.2	17	2	-2	-7
CN1CCN(C2=NC3(CCCC3)C(C#N)C(=O)N2)CC1 (configuration not stated)	10824	5	5.3	2	-2	6	-19
Cc1ccc2nc(C)c3c(c2c1)COC3	9047	4	5.0	25	19	4	-13
CCC(=O)Nc1c(-c2ccccc2Cl)c(=O)c2ccccc2n1CC	2921	2	1.7	2	-4	5	-1
O=[N+]([O-])c1ccc(Oc2c(F)c(F)nc(N3CCCC3)c2F)cc1	3355	-2	-12	1	11	7	-15
CC(C)(C)NC(=O)NC(=O)CSc1n[nH]c(-c2ccccc2Br)n1	4364	2	-3.6	7	-2	-2	-26
CCCCNS(=O)(=O)c1ccc(NC(=O)C2c3ccccc3Oc3ccccc32)cc1	2474	5	1.3	11	5	1	-8
Cc1cccc(NC(=O)c2ccccc2OCC(=O)N2CCCC2)c1C	nt	5	5.9	16	3	-3	nt
Clc1cccc2sc(N3CCCC3)nc12	3320	6	15	5	0	-16	-24
COc1cc(C)nc(NC(=O)NC(=O)c2ccc(C(F)(F)F)cc2)n1	5427	6	15	13	0	-10	-9
Fc1ccc(-c2nnsc2Sc2ccccn2)cc1	3339	1	5.0	4	9	0	-23
O=c1[nH]c(CN2CCN(S(=O)(=O)c3ccc(Cl)cc3)CC2)nc2cc(Cl)ccc12	1955	2	-0.2	2	1	-6	-12
COC(=O)/C(C#N)=C/c1c(N2CCN(c3ccccc3)CC2)nc2c(C)cccn2c1=O	4141	3	3.5	-11	4	0	-3
Cc1ccc(-c2cnc3ccccc3n2)cc1C	2971	5	5.9	17	3	6	16
Cn1c(C(=O)OCC(=O)NCc2ccco2)cc2sccc21	12519	2	4.5	8	8	-11	-14
COC(=O)N/N=C1\CCCc2ccccc21	2000	nt	nt	nt	nt	9	-15
O=C(CCC(=O)c1ccc(F)cc1)NC1CCCN(Cc2ccccc2F)C1 (configuration not stated)	nt	9	-0.3	8	2	-11	-5
COc1ccc(NC(=O)CSc2n[nH]c(C)c2[N+](=O)[O-])cc1	4751	nt	nt	nt	nt	3	-34
Cc1cc(C)n2[nH]c(=O)c(N=Nc3ccc(S(N)(=O)=O)cc3)c2n1	3486	3	3.2	16	-6	2	-21
Cc1ccc(NCc2n[nH]c(=S)n2-c2ccccc2)c(C)c1	4565	-12	1.5	-15	-14	-5	-41
Cc1ccc2ccc(C(Nc3ccccn3)c3ccccc3)c(O)c2n1 (configuration not stated)	4190	8	4.7	2	2	11	-26
CCOC(=O)C1(Cc2ccccc2C#N)CCCCC1=O (configuration not stated)	4649	5	5.3	8	6	nt	-6
COc1ccccc1-c1ccc(SCc2cccc(F)c2)nn1	4559	nt	nt	nt	nt	-5	-37
CCCCn1c(SCC(=O)N2CCCc3ccccc32)nc2c1c(=O)n(C)c(=O)n2C	7823	-9	-2.3	4	3	10	-17
CC1=C(C(=O)OCC2CCCCC2)C(c2ccccc2F)NC(=O)N1 (configuration not stated)	5677	-2	4.6	11	8	-2	nt
Cc1cc(C)n(CCNC(=O)c2cc(COc3ccc4ncccc4c3)on2)n1	4314	0	2.0	-5	-4	22	-4
Cc1ccc(Nc2cc(C(=O)NCCCN3CCOCC3)c3ccccc3n2)cc1C	4393	2	2.2	-6	-7	0	6
CC1OC(=O)C(C)C1CC(O)[C@](C)(O)C1CC[C@@]2(O)C3=CC(=O)C4CC(O)C(O)C[C@]4(C)C3CC[C@]12C (some centres not stated)	nt	0	4.2	16	15	nt	nt
CCCCn1c(N)c(N(CCC(C)C)C(=O)CSc2nnc(Nc3ccccc3)s2)c(=O)[nH]c1=O	4771	0	4.8	5	22	-2	-4
COc1ccccc1N1CCN(C(=O)CSc2nc3ccccc3nc2N2CCCCC2)CC1	5292	-4	-6.1	5	1	-8	-21
CCn1c(CCNC(=O)c2ccc(C)cc2)n[nH]c1=S	9397	-1	-6.2	-6	-12	14	1
Cn1cccc1/C=N/n1c(-c2ccc(Cl)cc2)n[nH]c1=S	2296	nt	nt	nt	nt	-1	-20
COc1ccc(NC(=O)CCC(=O)N/N=C/c2ccncc2)cc1	5019	nt	nt	nt	nt	-5	-11

More compounds.
SMILES	Bead autofluor	ugtP null kill	RN4220 kill	Mtb hypoxia inh	Mtb hypoxia inh growth	BJeLR lethal	PrP 5UTR inh
O=C1CCc2cc(S(=O)(=O)N3CCCCC3)cc3c2N1CC3	4734	-3	-0.3	10	1	11	-33
COc1ccc2c(Cl)c(C(=O)OCC(=O)c3ccc4c(c3)NC(=O)CO4)sc2c1Cl	3357	3	2.0	-8	-10	nt	-12
COc1ccc(S(=O)(=O)N(C)CC(=O)NCc2cccnc2)cc1Cl	15306	0	0.7	13	-10	nt	3
CC(C)N(C(=O)[C@H]1C[C@H](CC(=O)NCCc2ccccn2)C(=O)N2CCc3c([nH]c4cc(-c5ccco5)ccc34)[C@]12C)C(C)C	3881	-3	-5.4	0	-3	nt	-4
Cc1ccccc1OCC(=O)Nc1ccc(N2CCN(C(=O)C(C)C)CC2)c(Cl)c1	3164	-2	3.5	-7	8	7	-9
C=CCn1c(N)cc(=O)nc1SC(C)C(=O)Nc1ccc(C(=O)OCC)cc1 (configuration not stated)	?	16	4.0	10	0	8	1
Cc1ccc(S(=O)(=O)N(C)C)cc1NC(=O)c1cc(-c2ccncc2)nc2ccccc12	3538	-5	4.3	-7	1	nt	-10
CCCn1c(SCC(=O)Nc2cccc(C)n2)nnc1C(C)C	4649	0	4.0	9	-7	1	-14
CN(CCc1ccccc1)C(=O)c1ccc(NC(=O)Cc2ccc(NC(=O)C3CCCN(C(=O)C4CCCCC4)C3)cc2)cc1 (configuration not stated)	3750	4	0.8	-4	0	nt	-24
O=C(CCS(=O)(=O)c1cccc2nonc12)NC1CCCCCC1	?	8	4.2	11	12	-5	-11
Cc1ccc(C(=O)N/C(=C/C=C\c2ccccc2)C(=O)NCc2ccco2)cc1	2405	nt	nt	nt	nt	-5	-23
CCCCN(C(=O)c1cc(OC)c(OC)c(OC)c1)C1=CC2CCC(C1)N2C (configuration not stated)	4366	2	4.8	nt	nt	1	-10
O=C(Cn1ncc(Cl)c(Cl)c1=O)NCC1CCCCC1	11300	-5	6.9	14	18	nt	-11
CC(=O)c1cccc(N=C2NC(=O)CS2)c1	2875	-1	-0.1	nt	nt	-2	-14
CCOC(=O)C1=C(N)OC2=C(C(=O)CC(C)C2)C1c1cccnc1 (configuration not stated)	3024	2	4.9	2	-1	0	-8
O=c1c2c3c(sc2ncn1Cc1ccc(F)cc1)CCC3	4632	-1	2.3	nt	nt	1	-29
O=C(NNC(=O)c1ccccc1O)c1ccc(S(=O)(=O)Nc2ccccc2)cc1	5564	2	5.5	-1	5	9	-18
O=C(Nc1c(C(=O)O)[nH]c2ccccc12)NC1CCCCC1	2216	-5	-1.4	nt	nt	3	-10
Nc1cc(CN2C(=O)c3ccccc3C2=O)cc(Cl)c1O	13496	0	2.3	-10	-2	-9	-8
Nc1c(Cl)cc(C2=NCCn3nc4ccccc4c32)cc1Cl	4635	2	4.1	8	-5	4	-9

Entries of single compounds from above. Values in the order: Bead autofluor | ugtP null kill | RN4220 kill | Mtb hypoxia inh | Mtb hypoxia inh growth | BJeLR lethal | PrP 5UTR inh
Record of Nc1cc(CN2C(=O)c3ccccc3C2=O)cc(Cl)c1O = 13496 | 0 | 2.3 | -10 | -2 | -9 | -8
Record of Nc1c(Cl)cc(C2=NCCn3nc4ccccc4c32)cc1Cl = 4635 | 2 | 4.1 | 8 | -5 | 4 | -9
Record of CC(=O)c1cccc(N=C2NC(=O)CS2)c1 = 2875 | -1 | -0.1 | nt | nt | -2 | -14
Record of Cc1ccc(C(=O)N/C(=C/C=C\c2ccccc2)C(=O)NCc2ccco2)cc1 = 2405 | nt | nt | nt | nt | -5 | -23

(more compounds)
SMILES	Bead autofluor	ugtP null kill	RN4220 kill	Mtb hypoxia inh	Mtb hypoxia inh growth	BJeLR lethal	PrP 5UTR inh
CCc1ccc(NC(=O)[C@H](C)NC(=O)C2CCN(C(=O)[C@@H](NC(=O)OC(C)(C)C)C(C)C)CC2)cc1	3633	-1	4.4	1	18	-13	-20
COc1ccc(OC)c(C(c2nnnn2CCc2ccccc2)N2CCN(c3ccccc3)CC2)c1 (configuration not stated)	4325	-3	5.0	19	10	7	-9
Clc1ccc(COc2cccc(CNCc3ccncc3)c2)cc1	4278	0	-2.9	0	-10	4	-12
CC(Sc1ncccn1)C(=O)N1CCc2ccccc21 (configuration not stated)	7737	10	5.3	4	1	nt	-11
O=C(OCC(=O)N1CCC(c2ccccc2)=N1)c1ccc(Cl)s1	nt	4	19	4	2	nt	-32
Cc1ccc(C(=O)Nn2cnnc2)c(Cl)c1	4167	1	2.2	7	1	6	-37
CC(C)(C)c1[nH]nc2c1C(c1ccc(OC(=O)c3ccco3)cc1)C(C#N)=C(N)O2 (configuration not stated)	5605	16	4.0	19	10	16	-21
CC(=O)Nc1ccc(N/C=C(\C=O)c2nc3ccccc3o2)cc1	4061	4	6.9	-2	-9	-8	-15
Cc1ccc(-c2nc(NCc3ccco3)n(C(=O)c3ccco3)n2)cc1	4040	5	-3.1	10	-2	-6	-39
CC(C)(C)NC(=O)C(=O)NCc1ccccn1	4721	2	1.2	-6	-5	-3	-24
Cn1cnnc1SCC(=O)c1c(N)n(Cc2ccccc2)c(=O)n(C)c1=O	3178	3	1.0	6	4	3	-24
C=CCSc1nc(=O)n2ccccc2n1	4276	12	5.6	10	2	9	-27
CCn1c(SCC(=O)N2CCC(C)CC2)nc2c1c(=O)n(C)c(=O)n2C	4766	7	4.2	6	0	-1	-2
COc1ccc(CNC[C@H]2O[C@@H](n3cnc4c(N)ncnc43)[C@H](O)[C@@H]2O)cc1OC	3738	-3	2.8	-2	-2	nt	2
COc1ccccc1CNC(=O)COC(=O)c1cnccn1	3196	-4	-0.3	7	16	-2	-23
CCCCn1c(N)c(N(CCOC)C(=O)c2cnccn2)c(=O)[nH]c1=O	5284	5	1.0	4	1	2	8
